High-throughput results (PubChem)
gsp antag: qHTS for Antagonists of gsp, the Etiologic Mutation Responsible for Fibrous Dysplasia/McCune-Albright Syndrome: qHTS | gsp-mutant cells, cAMP HTRF, 30 min; control for the full effect not named in the record | Potency, µM (top dose mostly 76.9 µM), without a hit: at the top dose activity change, negative = inhibition, usual class: inhibitors | 340,000 compounds, 0.4% hits | AID 624288, 2012; active = falling curve of any shape with a large fitted effect; inconclusive = falling curve, mostly with a smaller effect; inactive = flat or rising curve; cell line not stated here;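 also: intracellular cAMP measured with PDE inhibitor Ro 20-1724 present during compound exposure; potency is read from the fitted curve at half-maximal effect; % is scaled to controls: 0 for no effect and ±100 for the full control effect; nearly all actives have a fitted effect of over 65% in size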
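Cells, 2000/well, grown 16–24 h in DMEM 10% FBS with 0.5 mg/ml G418, then compounds plus […] (300 uM addition stock), 30 min at 37C. cAMP read by HTRF (cAMP-d2 and anti-cAMP antibody-K in lysis buffer) after 30 min RT.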
Menin-MLL FL inh: qHTS Assay for Inhibitors Targeting the Menin-MLL Interaction in MLL Related Leukemias: Competition With Fluorescein Labeled MLL-derived Peptide; Fluorescence polarization, fluorescein-MLL peptide displacement from menin; 290,000 tested, under 10 active; FP activity change, % at 61.4 µM; inconclusive = falling polarisation curve, or a change in total fluorescence; inactive = total fluorescence flat and polarisation flat or rising; no compound was filed as active; the % refers to the polarisation; negative = inhibition;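 also: % of control where 0% means no effect; inhibitors lower the polarisation; unlabelled MLL peptide was the positive control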
Sfp inh: qHTS Assay for Inhibitors of Bacillus subtilis Sfp phosphopantetheinyl transferase (PPTase); 4'-phosphopantetheinyl transferase ffp (Bacillus subtilis), Q9F4F7; Biochemical Sfp PPTase activity, qHTS; Potency, µM, for the others: max response, negative = inhibition, hits mostly inhibitors; 310,000 compounds, 3.5% hits; AID 1490, 2009; active = well fitted inhibition curve with a large enough effect; inconclusive = small, poorly fitted or top-dose-only effect, or another doubt; inactive = no such curve, though single readings can be large or run the other way;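 also: the enzyme is Sfp with the accession as filed and its product quenches rhodamine fluorescence; potency is read from the fitted curve at half-maximal effect; 0% = enzyme reaction without inhibitor and -100% = no enzyme wells; top concentration of the series not given in the record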
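Reaction rates are the 30-min fluorescence difference (ex 525, em 598 nm) in wells containing 15 nM Sfp, 5 uM rhodamine-CoA and 12.5 uM BHQ-2-YbbR at pH 7.6 with 10 mM MgCl2.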
TRPV1 potentiator: HTS Assay for Compounds that Act as Potentiators of the Vanilloid Receptor 1; Transient receptor potential cation channel subfamily V member 1 (Homo sapiens), Q8NER1; TRPV1-expressing cells, Fluo-8 calcium influx, capsaicin EC20 potentiation; host cell line not named in the record; control for the full effect not named in the record; potentiation, % at 8.33 µM; 320,000 compounds, 0.02% hits; active means potentiation above 80%; inconclusive means 30% to 80%; inactive means below 30%; also: 0% is about no effect
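Fluo-8 calcium influx in TRPV1-expressing cells, kinetic read (ex 480/em 520 nm). Compound added and read 3 min for agonist activity, followed by capsaicin at EC20 final and 2 min further read for enhancement.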
gsp agonist: qHTS for Agonist of gsp, the Etiologic Mutation Responsible for Fibrous Dysplasia/McCune-Albright Syndrome: qHTS; gsp mutant cells, cAMP HTRF, 30 min; control for the full effect not named in the record; Potency, µM (series often up to 76.9 µM), inactives show at the top dose activation (cAMP increase), actives largely listed as activators; 340,000 compounds, 0.13% hits; active = well fitted activation curve with a large enough effect; inconclusive = small, poorly fitted or top-dose-only effect, or another doubt; inactive = no such curve, though single readings can be large or run the other way; cell line not stated here;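 also: phosphodiesterase inhibitor Ro 20-1724 added with compounds to block cAMP breakdown; potency is read from the fitted curve at half-maximal effect; nearly all actives have a fitted effect of over 60% in size; about a fifth of the inactives were tested at one dose only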
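Cells in DMEM/10% FBS with G418 were pretreated with compounds in DMSO plus […] (300 uM stock) for 30 min at 37C. cAMP was measured by HTRF (cAMP-d2 plus anti-cAMP antibody-K) after 30 min at room temperature.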
TRPML1 inh: qHTS for Inhibitors of the Human Mucolipin Transient Receptor Potential 1 (TRPML1); activity change, negative = inhibition, % (test concentration not listed); TRPML1-inducible cells, Ca2+ dye fluorescence, FDSS; active compounds read low; inhibition of EC80 agonist-evoked calcium signal; 390,000 compounds, 0.02% hits; Mucolipin-1 (Homo sapiens), Q9GZU1; AID 624415, 2012; in the data active means activity change below about -50%; inconclusive means about -30% to -50%; inactive means above about -30%;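 also: stimulus is agonist 54-4 at its EC80 concentration; % is scaled to controls: 0 for no effect and ±100 for the full control effect; compound concentration not given in the record; the text of the record puts the active cut at -80%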
Target sequence (Q9GZU1 whole entry, looked up): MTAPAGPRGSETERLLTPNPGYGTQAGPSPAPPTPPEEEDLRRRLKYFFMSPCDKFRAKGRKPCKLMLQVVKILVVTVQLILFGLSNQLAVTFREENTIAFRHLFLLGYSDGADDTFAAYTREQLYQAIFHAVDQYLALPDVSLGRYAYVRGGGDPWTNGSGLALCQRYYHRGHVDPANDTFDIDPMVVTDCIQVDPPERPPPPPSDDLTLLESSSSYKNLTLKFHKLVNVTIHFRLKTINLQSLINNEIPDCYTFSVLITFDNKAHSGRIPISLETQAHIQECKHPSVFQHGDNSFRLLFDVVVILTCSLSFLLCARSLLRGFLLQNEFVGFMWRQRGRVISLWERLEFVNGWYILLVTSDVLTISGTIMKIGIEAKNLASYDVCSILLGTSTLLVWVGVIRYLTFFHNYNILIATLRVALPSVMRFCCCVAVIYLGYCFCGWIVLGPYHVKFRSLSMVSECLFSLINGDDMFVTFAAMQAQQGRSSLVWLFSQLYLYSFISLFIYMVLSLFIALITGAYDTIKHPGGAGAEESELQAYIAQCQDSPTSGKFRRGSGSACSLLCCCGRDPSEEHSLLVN
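Calcium fluorescence in TRPML1-DL cells induced overnight with Tet: a 110 s read after compound pin addition, then a 110 s antagonist read after challenge with 54-4 at 4 uM final (EC80).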
ClpP mod: qHTS Assay for Activators of ClpP. ATP-dependent Clp protease proteolytic subunit (Bacillus subtilis (strain 168)), P80244. purified B. subtilis ClpP, FRET peptide cleavage, 20 min. Potency, µM (top dose mostly 57.5 µM), inactives show at the top dose activity change, negative = active. 340,000 compounds, 1.9% hits. AID 651965, 2013; active = well fitted falling curve with a large enough effect; inconclusive = small, poorly fitted or top-dose-only effect; inactive = no such curve, though single readings can be large or run the other way; also: potency is read from the fitted curve at half-maximal effect; the source files actives as falling curves though it sought activators and does not explain the sign; nearly all actives have a fitted effect of over 65% in size; many hits overshoot -100%
Target sequence (P80244 whole entry, looked up): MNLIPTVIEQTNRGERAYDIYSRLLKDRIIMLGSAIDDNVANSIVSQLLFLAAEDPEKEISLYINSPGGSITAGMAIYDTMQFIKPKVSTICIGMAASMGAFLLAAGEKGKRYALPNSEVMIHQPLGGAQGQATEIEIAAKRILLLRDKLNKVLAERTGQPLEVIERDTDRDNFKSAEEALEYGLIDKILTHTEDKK
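Purified B. subtilis ClpP, 10 microg/mL final in Tris/HCl pH8 with KCl, BSA, glycerol and Tween-20, cleaved an Abz/nitrotyrosine-quenched decapeptide. Fluorescence (ex 320, em 430) was read at 0 and 20 min at room temperature. Delta was normalized to 5.8 microM ADEP and DMSO/no-enzyme controls.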
An asterisk follows results filed as active; ? = inconclusive; . = not tested or not shown; & = joins results of further samples; [ ] = dose if it differs, or a comment.

SMILES | gsp antag | Menin-MLL FL inh | Sfp inh | TRPV1 potentiator | gsp agonist | TRPML1 inh | ClpP mod
CSCCC(Nc1ccc(S(=O)(=O)N2CCOCC2)cc1[N+](=O)[O-])C(=O)OCC(=O)N(C(C)C)C(C)C (stereo not given) | -17% | 3.4 | 27% | -4 | 17%[15.4 µM] | -8 | -0.5%
COC(=O)Cn1c(C(=O)N(C)C)cc2c1C[C@H]1CN(C(=O)c3ccccc3)[C@@](Cc3ccc(F)cc3)(C(=O)OC)[C@@H]21 | . | 2.2 | 21% | . | . | . | -1.7%
N#CCCN(Cc1ccccc1)C(=O)Nc1ccccc1 | 0% | 2.0 | 8% | 10 | -6% | -25 | -1.3%
O=S(=O)(O)c1ccc(NN=Cc2ccccc2O)cc1 | 8% | . | . | . | -25% | -1 | .
CCCCC(=O)Nc1cc(-c2nc3ncccc3o2)ccc1C | 0% | -4.1 | 19% | 8 | 21% | -3 | 4.0%
CCOc1ccc(NC(=NCc2ccc3c(c2)OCO3)SC2CC(=O)N(c3ccc(OCC)cc3)C2=O)cc1 (stereo not given) | 10% | 2.0 | 8% | 5 | 12% | 1 | -1.1%
Cc1cc(Cl)c(S(N)(=O)=O)cc1OCC(=O)NC1CCCCC1 | 5% | 6.8 | 2% | 14 | -48%[inhibitor] | 12 | -1.3%
Cc1ccc(S(=O)(=O)CC(=O)N2CCCC2)cc1 | 4% | -0.7 | 24% | 6 | 31% | 0 | -2.2%
C=CCOc1ccc(/C=C/C(=O)OCC(=O)N(C)CC(=O)Nc2ccc(F)cc2)cc1 | -6% | . | . | -4 | -16% | 29 | -2.2%
Cc1nc(N)nc(N(C)c2ccccc2)c1Br | 9% | . | . | . | -13% | 11 | .
C=CCN1C2CCCC1CC(NC(=S)Nc1cccc(OC)c1)C2 (stereo not given) | 10% | -0.5 | 14% | 3 | -16% | 13 | 0.5%
O=C(/C=C/c1ccccc1)NNC(=O)c1cccc(Cl)c1 | 6% | 1.8 | 13% | -22 | -14% | 2 | 0.2%
CCN(CC)S(=O)(=O)c1cccc(-c2nnc(SCC(N)=O)n2CCc2ccccc2)c1 | -8% | 0.5 | -2% | -6 | -26% | -17 | -2.1%
O=C(N/C(=C\c1ccc([N+](=O)[O-])cc1)C(=O)N1CCCCC1)c1ccc(Br)o1 | -7% | . | 11% | -15 | -5% | 1 | 0.5%
COc1ccccc1OCCCC(=O)Nc1nccs1 | 16% | -1.4 | 14% | -1 | -23% | 24 | 1.0%
COC(=O)c1ccc(C23CC4(C2)[C@H](CN(CC2CCCCC2)[C@@H]4c2ccccc2)C3c2ccc(C(F)(F)F)cc2)cc1 (stereo not given in full) | 13% | 7.6&7.6 | 12%&-5% | -27 | . | 25 | -3.8%
S=c1[nH]cnc2scc(-c3ccccc3)c12 | -4% | 6.2 | -7% | -3 | 6% | 7 | -0.8%
CC1=NN(C(C#N)c2ccc(F)cc2)C(C)(C)C1 (stereo not given) | 6% | -8.2 | 7% | 9 | ? | -5 | 0.4%
N#CC1(NC(=O)COc2ccc(S(=O)(=O)N3CCCC3)cc2[N+](=O)[O-])CCCCC1 | -10% | . | . | 4 | -6%[15.4 µM] | 23 | .
CCCn1c(SCC(=O)NCc2ccc(OC)cc2)n[nH]c1=O | 7% | -0.1 | 7% | 15 | -20% | -8 | .
CS(=O)(=O)c1ccc(Cl)c(NC(=O)Cc2c(Cl)cccc2Cl)c1 | 4% | 1.7 | ? | -8 | 4%[15.4 µM] | -8 | .
Cc1ccc2c(c1)C(=O)CC(O)(C(F)F)O2 (stereo not given) | 12% | 5.0 | 12% | 18 | 0% | 19 | 4.0%
Cc1ccc(C)c(NC(=O)Cc2nc(CNCC(C)C)cs2)c1 | 5% | 4.7 | 2% | 3 | 2%[15.4 µM] | -8 | .
CC1CCCC(NC(=O)COC(=O)CN2C(=O)C3CCCCC3C2=O)C1C (stereo not given) | -3% | 2.8 | 3% | -13 | 2%[15.4 µM] | -13 | .
O=C(c1ccccc1)N1CCN(C(=O)c2ccccc2Br)CC1 | 3% | 4.2 | 18% | -1 | -31%[inhibitor] | 40 | -0.4%
O=C(Nc1ccccc1C(=O)N/N=C/c1ccco1)c1ccccc1Cl | -7% | 2.9 | 19% | -17 | -15% | 0 | 0.3%
CC(C)CCNC(=O)c1ccc(Cl)c(N)c1 | . | 6.4 | 12% | -2 | . | . | .
Cc1cccc(OCC(=O)N(Cc2ccccc2)c2c(N)n(Cc3ccccc3)c(=O)[nH]c2=O)c1 | 2% | . | . | -4 | ? | 27 | -3.2%
O=C(NCc1ccccc1Cl)c1ccncc1 | 9% | -0.9 | 13% | 1 | -30%[15.4 µM] | 24 | -2.5%
Cc1ccc(S(=O)(=O)N=Nc2c(O)[nH]c3ccccc23)cc1 | 0% | 3.6 | 1% | 10 | -13% | -12 | -9.9%

Ordered by molecular weight (low to high): part of the list above.
SMILES | gsp antag | Menin-MLL FL inh | Sfp inh | TRPV1 potentiator | gsp agonist | TRPML1 inh | ClpP mod
O=C(NCc1ccccc1Cl)c1ccncc1 | 9% | -0.9 | 13% | 1 | -30%[15.4 µM] | 24 | -2.5%
O=S(=O)(O)c1ccc(NN=Cc2ccccc2O)cc1 | 8% | . | . | . | -25% | -1 | .
Cc1nc(N)nc(N(C)c2ccccc2)c1Br | 9% | . | . | . | -13% | 11 | .
C=CCOc1ccc(/C=C/C(=O)OCC(=O)N(C)CC(=O)Nc2ccc(F)cc2)cc1 | -6% | . | . | -4 | -16% | 29 | -2.2%
CSCCC(Nc1ccc(S(=O)(=O)N2CCOCC2)cc1[N+](=O)[O-])C(=O)OCC(=O)N(C(C)C)C(C)C (stereo not given) | -17% | 3.4 | 27% | -4 | 17%[15.4 µM] | -8 | -0.5%

The list continues.
SMILES | gsp antag | Menin-MLL FL inh | Sfp inh | TRPV1 potentiator | gsp agonist | TRPML1 inh | ClpP mod
O=C(Nc1ccc(Cl)cn1)c1ccccc1F | 14% | -5.3 | 5% | 2 | 1% | 27 | -13%
Cc1ccc(S(=O)(=O)c2cc(C#N)c(=O)[nH]c2N)cc1 | -1% | 5.0 | 21% | . | -5% | 16 | -27%
O=C(NCC1CCCO1)c1ccc[nH]1 (stereo not given) | 6% | 2.9 | 14% | 17 | 1% | -11 | 2.6%
CCOC(=O)CN1C(=O)/C(=C/c2c(F)cccc2Cl)Oc2ccccc21 | -16% | 4.1 | -1% | 7 | 2% | 0 | .
CCOC(=O)Cc1nn(CC)c(=O)c2ccccc12 | 13% | 0.4 | 15% | 5 | -3% | -9 | -0.6%
COc1ccc(C2=Nn3c([n+](C)c4ccccc43)SC2)cc1 | 2% | -0.8 | -11% | 24 | 18% | 39 | 0.4%
OCc1nc2ccccc2n1CCCc1ccccc1 | . | . | . | . | -12% | 10 | -2.5%
CCC(C)NC(=O)c1cc(-c2cccs2)nc2ccccc12 (stereo not given) | -9% | -7.0 | 9% | ? | 14% | -15 | .
CC(=O)N1CCc2cc(S(=O)(=O)NC3CCCc4ccccc43)ccc21 (stereo not given) | -35% | -1.4 | 12% | 7 | 0% | 2 | -0.5%
CC1CN(C(=O)CSc2nnc(-c3ccncc3)n2-c2ccccc2)CC(C)O1 (stereo not given) | 7% | -7.0 | 15% | -8 | 7% | -2 | -8.3%
O=C(Nc1ccc(CN2CCOCC2)cc1)c1cccc(F)c1 | -1% | -4.6 | 10% | -11 | -10% | 3 | -0.2%
O=C(CCl)N1CCN(S(=O)(=O)c2ccc3c(c2)CCC3)CC1 | -5% | . | . | -15 | 26% | -7 | -0.3%
Cc1ccnc(Nc2nc(-c3ccc(Cl)cc3)cs2)c1 | 6% | 0.9 | 9% | 11 | ? | 10 | .
c1ccc2c(c1)CCCN2c1nc(N2CCOCC2)nc(N2CCOCC2)n1 | -35% | -3.0 | 1% | -2 | -36%[inhibitor] | -6 | 1.8%
CCOc1ccc2nc(NC(=O)C3CSC4(C)CCC(=O)N34)sc2c1 (stereo not given) | -5% | . | . | 1 | 29% | 7 | -4.9%
O=C(OCC1CC(c2ccccc2Cl)=NO1)c1ccc(Br)cc1 (stereo not given) | 0% | 0.4 | 6% | -6 | 10%[15.4 µM] | -1 | -0.4%
CCN(CC)CCCNC(=S)N1CCn2c(nc3ccccc32)C1 | 11% | -0.5 | -6% | -10 | -23%[15.4 µM] | 19 | -1.3%
CCOC(=O)c1c(C)[nH]c(C(=O)CN2C(=O)C(=O)N(CC(C)C)C2=O)c1C | -2% | -2.7 | 11% | -1 | 7%[15.4 µM] | 3 | .
CC(Oc1ccc(C(C)(C)C)cc1)C(=O)NC1CC(C)(C)NC(C)(C)C1 (stereo not given) | 9% | . | -1% | 17 | -6% | 4 | 2.3%
O=C(O)/C=C/c1ccc(S(=O)(=O)N(CCO)CCO)cc1 | -6% | -2.0 | 16% | ? | ? | 10 | .
O=C(CCCn1c(SCC(=O)Nc2ccccc2C(F)(F)F)nc2ccccc2c1=O)NCC1CCCO1 (stereo not given) | ? | -2.0 | 0% | 6 | 6% | -12 | -0.5%
Cc1ccc(-c2cc(-c3cccs3)[nH]n2)c(O)c1 | -12% | 1.7 | 10% | -3 | 12% | 30 | -1.1%
O=C(NCc1ccccc1F)c1ccc2ccccc2n1 | -3% | 8.5 | -3% | -15 | 7%[15.4 µM] | 7 | .
CC(NC(=O)CSc1nnc2n1CCCCC2)c1ccccc1Cl (stereo not given) | 19% | . | . | -8 | -8% | -1 | 1.8%
